# Source: PubChem BioAssay
# VACV Venus inh: qHTS for Stage-Specific Inhibitors of Vaccinia Orthopoxvirus: Venus Reporter Primary qHTS; Vaccinia virus Venus reporter expression, fluorescence; Potency, µM (highest dose often 36.5 µM), inactives show at the highest dose activity change, negative = inhibition, usual class: inhibitors; actives 0.46% (n = 330,000); AID 720580, 2013; active means well fitted inhibition curve with a large enough effect; inconclusive means small, poorly fitted or top-dose-only effect; inactive means no such curve, though single readings can be large or run the other way; tested in A549 cells; also: nearly all actives have a fitted effect of over 30% in size; inactives centre near -10
# Vaccinia mCherry: qHTS for Stage-Specific Inhibitors of Vaccinia Orthopoxvirus: mCherry Reporter Primary qHTS. Vaccinia virus mCherry reporter infection, fluorescence; about a quarter of the inactives have no number. Potency, µM (top dose mostly 36.5 µM), inactives show top-dose activity change, negative = inhibition, actives largely listed as inhibitors. actives 0.63% (n = 310,000). AID 720579, 2013; active = well fitted inhibition curve with a large enough effect; inconclusive = small, poorly fitted or top-dose-only effect; inactive = no such curve, though single readings can be large or run the other way; tested in A549 cells; also: nearly all actives have a fitted effect of over 35% in size; inactives centre near -10
# Active calls of the source: *; i = inactive; ? = inconclusive; . = no result given; & = joins results of further samples; [ ] = dose if it differs, or a comment. % is scaled to controls: 0 for no effect and ±100 for the full control effect; potency is read from the fitted curve at half-maximal effect. Random draw from the library; about 0.87% have a hit in one of these screens.
# The opening 2 compounds as a preview:
mol | VACV Venus inh | Vaccinia mCherry
Cc1ccc(C2C=C(c3ccccc3)Nc3nc(NS(C)(=O)=O)nn32)cc1 (configuration not stated) | -18%[7.34 µM] | -16%[7.34 µM]
O=C(NC1CCCC1)C(c1ccncc1)N(C(=O)c1csnn1)c1ccccc1 (configuration not stated) | -14% | -4%

# The list itself, from the first entry:
mol | VACV Venus inh | Vaccinia mCherry
Cc1ccc(C2C=C(c3ccccc3)Nc3nc(NS(C)(=O)=O)nn32)cc1 (configuration not stated) | -18%[7.34 µM] | -16%[7.34 µM]
O=C(NC1CCCC1)C(c1ccncc1)N(C(=O)c1csnn1)c1ccccc1 (configuration not stated) | -14% | -4%
Cc1cccc(NS(=O)(=O)c2c(C(=O)N3CCCC3)c(C)n(C)c2C)c1 | -13% | -18%
N#Cc1ccsc1NC(=O)CN1CCOCC1 | 3% | -20%
COc1ccc(/C=N/Nc2nc(Nc3ccccc3)nc(N3CCCC3)n2)cc1 | -7% | -5%
CSc1ccc(C(=O)c2[nH]c(=O)[nH]c2C)cc1 | -7% | -10%
COc1ccccc1C(=O)NCCC(=O)NNC(=O)Cn1ccc(C(F)(F)F)n1 | 1% | -11%
CCOc1ccc(Cn2nnc(C(=O)Nc3ccc(Cl)cc3)c2N)cc1 | 7% | -10%
CC1=C(C(=O)N2CCOCC2)CC(CC(=O)NCCN2CCOCC2)C(=O)N1Cc1ccccc1 (configuration not stated) | -7% | -5%
COc1ccccc1N(CN1C(=O)c2ccccc2C1=O)C(=O)c1cccc(C)c1 | -8% | i
CC1CN(c2nc3ccccc3nc2NS(=O)(=O)c2ccccc2)CC(C)O1 (configuration not stated) | 8% | i
CCOC(=O)C1(CCc2ccccc2)CCN(Cc2ccccn2)CC1 | -21% | ?
Cc1ccc(NC(=O)c2cc(S(=O)(=O)N3CCCCC3)c[nH]2)cc1N(C)C | -11% | -12%
Cc1cc(C)c(S(=O)(=O)NCCn2ccc3ccccc32)c(C)c1 | -18% | -7%
Cc1c(C(=O)N(C)C2CCOC2)sc2ncnc(NCc3ccc4c(c3)OCO4)c12 (configuration not stated) | 5% | -12%
COC(=O)C1=CO[C@@H](C)[C@H]2CN3CCc4c([nH]c5ccccc45)[C@@H]3C[C@H]12 | -16% | -16%
Cn1c(CNC(=O)c2cccs2)n[nH]c1=S | 1% | i
Cc1ccc(C(=O)NCC(=O)OCC(=O)Nc2ncc(C(F)(F)F)cc2Cl)cc1 | -4% | -13%
O=C(Cc1ccsc1)Nc1ccccc1F | 1% | i
Cc1cc(C)nc(NC(=O)CN2C(=O)c3ccccc3S2(=O)=O)n1 | 7% | -6%
O=C(Nc1ccc(S(=O)(=O)N2CCCCC2)cc1)c1ccncc1 | -28% | i
COc1ccccc1NC(=O)CSc1nnc(-c2ccccc2C)o1 | -2% | -6%
COc1cc(OC)cc(C(=O)Nc2ccc(-c3nc4ccccc4s3)c(C)c2)c1 | -26% | -21%
CCCc1nc(N)c(C#N)c(-c2cccnc2)c1CC | -8% | -12%
Nc1nc(-c2ccc3c(c2)NC(=O)CO3)cs1 | -13% | -21%
CCCCOc1ccc(C(=O)NCC(=O)NCC2CCCO2)cc1 (configuration not stated) | -11% | i
NC(=O)c1ccc(NC(=O)CCN=C2NS(=O)(=O)c3ccccc32)cc1 | -11% | -13%
Cc1ccc(C(=O)c2sc(Nc3ccc(F)cc3)nc2N)c(C)c1 | -20% | ?
O=C(O)CCSc1nnc(SCC(=O)NC2CCS(=O)(=O)C2)s1 (configuration not stated) | -1% | i
C=CCOc1ccc(CN(C)CC(O)COc2ccc(CCC(C)=O)cc2)cc1 (configuration not stated) | -7% | 3%
Cn1cc(CC(=O)N2CCN(c3ccccc3F)CC2)c2ccccc21 | -23% | -27%
Cc1c(C(=O)NCc2ccco2)oc2ccccc12 | -13% | 18%
CN(C)c1ccc(C2CC(=O)OC3=C2C(=O)CC(C)(C)C3)cc1 (configuration not stated) | -3% | i
CCOc1ccccc1N1CCN(C(=O)c2cn(CC3CCCCC3)nn2)CC1 | -18% | -3%
O=C(CSc1ccc(Cl)cc1)N1CCN(c2c(Cl)cccc2[N+](=O)[O-])CC1 | -24% | .
COCC(=O)N1CCc2cc(OC)c(OC)cc2C1COc1ccc2c(C)cc(=O)oc2c1 (configuration not stated) | 0% | 6%
O=[N+]([O-])c1cccc(S(=O)(=O)N2CCCCCC2)c1 | -9% | -2%
CCn1cc(CNC(=O)C2CCC(=O)N(Cc3ccccc3F)C2)cn1 (configuration not stated) | -10% | -7%
Cc1ccc(-c2csc3ncn(CC#N)c(=O)c23)cc1C | -2% | i
O=C(CN(c1ccccc1F)S(=O)(=O)c1ccccc1)N1CCCCCC1 | -14% | -17%
O=C(NC1CCCC1)C1C(c2ccc(C(F)(F)F)cc2)=Nc2ccccc2N1C(=O)c1cccc(C(F)(F)F)c1 (configuration not stated) | -20% | -4%
CCOC(=O)C(=CNc1cc(C)ccc1C)C(=O)OCC | -15% | -9%
COc1ccc(-n2nc(C(=O)N3CCCCC3)c3c4ccccc4n(C)c3c2=O)cc1Cl | -15% | -14%
COc1ccc(C(=O)NCC(C)CN(C)C)cc1 (configuration not stated) | -29% | .
CCn1c(C)nc2cc(S(=O)(=O)N3CCCC3)ccc21 | -22% | -21%
CSc1nc2ccccc2s1 | 1% | 8%
O=C(NCCc1ccccc1)c1cccc(S(=O)(=O)NCc2ccccc2)c1 | -8% | -18%
CN(C(=O)c1cc(-c2ccccc2)on1)C1CCCCC1 | 10% | 27%
COc1ccc(Cl)cc1-c1nc(SCC(=O)N(C)C)n[nH]1 | 0% | -4%
O=C(NCc1ccccc1Cl)c1ccc(Cn2c(SCc3ccccc3)nc3cccnc32)cc1 | -16% | -29%
CN(C)CCCn1c2c(c(SCC(=O)Nc3ccc4c(c3)OCO4)nc1=O)CCCC2 | -12% | i
Cc1c(NC(=S)NC(NC(=O)C(C)C)C(Cl)(Cl)Cl)c(=O)n(-c2ccccc2)n1C (configuration not stated) | -11% | i
CCc1ccc2nc(/N=C(\N)NC(=O)c3ccccc3)nc(C)c2c1 | -10% | -11%
COc1cccc(-n2c(O)c(C=NCc3ccccn3)c3ccccc3c2=O)c1 | -2% | -11%
CC(=O)c1cccc(NC(=O)CN2C=NS(=O)(=O)c3ccc(C)cc32)c1 | -3%&1% | -14%&10%
Oc1ccc(N=Nc2ccc3c(c2)OCCO3)c2cccnc12 | ? | ?
CCOCCc1nnc(NC(=O)Cc2c(F)cccc2Cl)s1 | -14% | -24%
COc1ccc(CN(C)CC(=O)Nc2ccccc2C(=O)NC2CC2)cc1F | -12% | -9%
O=C(Nc1cc(Cl)cc(Cl)c1)c1cc(S(=O)(=O)NC2CCCC2)ccc1F | ? | -15%
COc1ccc(S(=O)(=O)N2CCC[C@@H]2C(=O)N2CCC[C@H]2C(=O)NCc2ccncc2)cc1C | -6% | -11%

# Next entries.
mol | VACV Venus inh | Vaccinia mCherry
Cc1ccc(OCC(=O)Nc2cccc3c2CCCC3)cc1C | -5% | 1%
Cc1ccc(-c2nc(-c3cccnc3)no2)cc1 | -8% | -17%
NC(=O)c1ccsc1NC(=O)CSc1nnc(NC2CC2)s1 | -7% | i
Cc1ccc(OCC(=O)OCc2cc(=O)n3nc(C4CC4)sc3n2)cc1C | -5% | -5%
O=C1c2ccccc2COc2ccc(O)cc21 | -10% | -19%
Cc1cc2c(c(N3CCOCC3)n1)C(=O)OC2 | -18% | .
COCC(=O)N1c2nc(C(C)C)nn2C2(CCCCC2)[C@@H]2CCCC[C@@H]21 | -8% | -9%
O=C(NC(=O)N1CCCC1)c1csnn1 | -3%[7.34 µM] | -28%[7.34 µM]
CCCNC(=O)COC(=O)c1ccccc1C(=O)c1ccc(Cl)c([N+](=O)[O-])c1 | 14µM* | ?
O=Cc1ccc2noc(-c3ccc(Cl)cc3)c2c1 | -12% | -14%
Cc1ccc(/C=N/NC(=O)c2ccco2)cc1 | -8% | i
CCOC(=O)N1CCC(C(=O)Nc2ccc(OCC)cc2)CC1 | -22% | 0%
COc1cccc(CNC(=O)CCNS(=O)(=O)c2ccc(C)cc2)c1 | -6% | -14%
c1ccc(-c2ccc3[nH]ccc3c2)cc1 | -28% | ?
Cc1ccc(-c2csc(NC(=O)c3ccc(-c4ccccc4)cc3)n2)o1 | -25% | ?
Cc1ccc2c(CC(=O)N3CCN(c4ccccc4)CC3)coc2c1 | 6% | -3%
CCOC(=O)C1=C(C)NC(=S)NC1/C=C/c1ccccc1 (configuration not stated) | -22% | -21%
COc1ccccc1-c1cnn2c(N3CCOCC3)cc(C)nc12 | -14% | i
CC(C)N1C(=O)CCC1C(=O)NCc1ccccc1Cl (configuration not stated) | 4% | i
C/C(N)=C(/C#N)C(=O)COC(=O)c1cc2c(s1)CCCC2 | -20% | i

# Copied from the entries so far (two entries):
mol | VACV Venus inh | Vaccinia mCherry
CC(C)N1C(=O)CCC1C(=O)NCc1ccccc1Cl (configuration not stated) | 4% | i
C/C(N)=C(/C#N)C(=O)COC(=O)c1cc2c(s1)CCCC2 | -20% | i

# Going on with the list:
mol | VACV Venus inh | Vaccinia mCherry
O=[N+]([O-])c1ccc(/C=C/C2=NN(c3ccccc3)C(c3ccco3)C2)cc1 (configuration not stated) | . | -1%
COc1ccc(NC(=O)c2ccccc2S(=O)c2ccccc2C#N)cc1 (configuration not stated) | -5% | -14%
CC1(c2nnc(-c3cccc(Cl)c3)o2)CC(c2ccc(OC(F)(F)F)cc2)=NO1 (configuration not stated) | -3% | i
Cc1ccc(CNC(=O)[C@H]2O[C@@H](n3ccc(N)nc3=O)[C@H](O)[C@@H]2O)o1 | 0% | -13%
O=C(Nc1cccc(NC(=O)N2CCN(c3ccccc3)CC2)c1)N1CCN(c2ccccc2)CC1 | ? | .
N#Cc1ccc(CN2CCN(C(=O)CN3C(=O)NC4(CCCC4)C3=O)CC2)cc1 | -21% | i
Cc1cc(/C=C(\C#N)C(=O)Nc2ccccc2)c(C)n1-c1ccc(C(=O)O)cc1 | 11% | 3%
Cc1cc(C)c(S(=O)(=O)Nc2ccccc2C(=O)OCC(=O)NCc2ccccc2)c(C)c1 | -12% | -5%
O=C(NC1CCCCC1)C(c1ccc2ncccc2c1)N(Cc1ccc2c(c1)OCO2)C(=O)c1cccs1 (configuration not stated) | -12% | i
Cc1cc(NC(=O)CCS(=O)(=O)c2ccc(F)cc2)no1 | -25% | -17%
S=C(NCc1cccnc1)Nc1ccc(Oc2ccc(Cl)cc2)cc1 | ? | -14%
O=C(CSc1ncc(-c2ccccc2)[nH]1)Nc1ccccc1F | -4% | -19%
CN(C)CC/C=C1\c2ccccc2Sc2cc(F)c(Cl)cc21 | ? | -9%
CCOc1ccc(-c2nonc2NC(=O)c2oc3ccc(CC)cc3c2C)cc1 | -12% | -20%
COC(=O)C1=C(c2ccc(F)cc2OCc2ccccc2)C[C@@H]2CC[C@H]1N2C(=O)NCCO | -10% | i
COc1ccc(-c2nnc3sc(-c4cccs4)nn23)cc1OC | -13% | ?
COc1ccc(N2C(=O)CS(=O)C(c3ccccc3)C2=O)cc1 (configuration not stated) | -2% | i
Cc1cc(C)cc(-n2c(C)cc(/C=C3\C(=N)N4N=C(CC(C)C)SC4=NC3=O)c2C)c1 | -21% | i
O=C(CCCCCN1C(=O)CCC1=O)Nc1ccc2c(c1)OCCO2 | 3% | -19%
COc1ccc(Br)cc1CNC(=O)CCc1nc(-c2ccccc2F)no1 | -16% | .
COc1ccc(/C=N/NC(=O)NC23CC4CC(CC(C4)C2)C3)c(OC)c1 | -10% | -16%
COCc1cc(=O)n2[nH]c(-c3ccsc3-n3c(C)ccc3C)cc2n1 | 14% | 0%
CCCn1cc(S(=O)(=O)c2ccccc2)c(=O)c2cc(OC)c(OC)cc21 | 1%[7.34 µM] | i[7.34 µM]
Cc1cc(NC(=O)Cn2c(=O)n(Cc3ccccc3)c(=O)c3ccccc32)no1 | -16% | -19%
CN(C)CCP(=O)(c1ccccc1)c1ccccc1 | -9% | -11%
CCCOc1ccc2ccccc2c1/C=N/n1cnnc1 | -16% | -1%
COc1cc(S(=O)(=O)N2CCN(c3ccccc3)CC2)ccc1Cl | -3% | -12%
Cc1cc(C)cc(OCC(=O)Nc2ccc(S(=O)(=O)Nc3ccccn3)cc2)c1 | 6% | -1%
COc1cccc(NC(=O)CC2SC(=Nc3ccccc3)NC2=O)c1 (configuration not stated) | -13% | -9%
Cc1ccc(NC(=O)/C=C\C(=O)N(c2ccc(C(C)C)cc2)C(C(=O)NCc2ccco2)c2ccc(Cl)cc2)cc1 (configuration not stated) | ? | ?
O=c1ccc2cc3ccoc3cc2o1 | 7% | -9%
Cc1ccc(C(=O)N(Cc2ccco2)Cc2sccc2C)cc1 | -8% | 2%
CC(C)C(=O)NC(Nc1cccc([N+](=O)[O-])c1)C(Cl)(Cl)Cl (configuration not stated) | -25% | -7%
CCSc1cc(C2C(C(=O)OC)=C(C)NC3=C2C(=O)CCC3)c(C)o1 (configuration not stated) | -17% | -30%
Cc1cc(/C=N/NC(=O)C(=O)N2CCCC2)c(C)n1-c1cccc(Br)c1 | -28% | -8%[1.46 µM]
COc1ccc(C2=Nn3c(nnc3-c3ccccn3)SC2)cc1 | ? | -28%
Cc1ccccc1SC1CCN(Cc2nc(C3CC3)no2)CC1 | -4% | 0%
